# hNpr1 antagonist – blocks ANP-stimulated signaling of human Npr1 receptor | P16066 | 76,000 compounds, 1.6% hits | Potency, µM (titrated, usually from 46.3 µM), for inactives: at the highest dose activity change, negative = inhibition, most hits filed as inhibitors | HEK293 hNpr1 GloSensor cGMP, ANP-stimulated luminescence; active = well fitted inhibition curve with a large enough effect; inconclusive = small, poorly fitted or top-dose-only effect; inactive = no such curve, though single readings can be large or run the other way;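 further: nearly all actives have a fitted effect of over 60% in size; nearly all hits also lower the signal before the agonist is added; a reference antagonist and vehicle were the controls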
# Target sequence (P16066 whole entry, looked up): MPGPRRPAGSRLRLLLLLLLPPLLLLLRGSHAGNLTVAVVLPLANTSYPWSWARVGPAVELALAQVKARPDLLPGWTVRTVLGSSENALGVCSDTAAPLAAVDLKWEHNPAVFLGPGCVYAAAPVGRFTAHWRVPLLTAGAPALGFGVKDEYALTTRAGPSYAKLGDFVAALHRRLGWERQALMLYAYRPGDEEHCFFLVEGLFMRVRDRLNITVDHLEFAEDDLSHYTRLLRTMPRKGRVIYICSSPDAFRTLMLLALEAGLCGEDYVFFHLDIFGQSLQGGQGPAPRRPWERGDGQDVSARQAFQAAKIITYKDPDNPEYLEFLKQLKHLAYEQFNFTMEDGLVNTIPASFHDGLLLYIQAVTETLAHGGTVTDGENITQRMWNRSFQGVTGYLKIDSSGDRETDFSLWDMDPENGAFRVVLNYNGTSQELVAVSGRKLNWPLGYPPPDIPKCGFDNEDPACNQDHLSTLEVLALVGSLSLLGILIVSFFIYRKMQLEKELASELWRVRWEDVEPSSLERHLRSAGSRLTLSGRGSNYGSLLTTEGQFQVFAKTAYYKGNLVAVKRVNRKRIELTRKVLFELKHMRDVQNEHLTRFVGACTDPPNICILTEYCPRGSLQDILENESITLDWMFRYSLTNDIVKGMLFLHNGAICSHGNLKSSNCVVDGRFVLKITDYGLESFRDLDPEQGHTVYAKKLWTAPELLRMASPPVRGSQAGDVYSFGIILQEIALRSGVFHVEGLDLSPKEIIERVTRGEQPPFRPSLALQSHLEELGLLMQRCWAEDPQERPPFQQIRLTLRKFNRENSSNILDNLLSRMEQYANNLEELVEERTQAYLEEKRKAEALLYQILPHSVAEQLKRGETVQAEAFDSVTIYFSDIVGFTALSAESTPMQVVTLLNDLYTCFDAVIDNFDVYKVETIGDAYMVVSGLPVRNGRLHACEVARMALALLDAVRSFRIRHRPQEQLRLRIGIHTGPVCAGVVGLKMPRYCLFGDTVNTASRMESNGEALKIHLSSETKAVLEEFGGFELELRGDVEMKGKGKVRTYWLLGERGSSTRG
#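 Compound pre-incubated 30 min at room temperature on GloSensor-loaded HEK293 cells stably carrying hNpr1 and the pGS-40F cGMP biosensor. Stimulation uses hNppA at 0.1 nM final; luminescence is taken at baseline and 20 min post-agonist.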
# Active calls of the source: *; ? = inconclusive; [ ] = remark or other dose. On the % scale 0 is the no-effect control and ±100 the full control effect; potency means the concentration at half of the fitted maximal effect.
SMILES,hNpr1 antagonist
COC(=O)[C@H](Cc1ccc(OC)cc1)NC(=O)[C@@H]1CNCCN1S(C)(=O)=O,-8%[70.6 µM]
O=C(c1nnc(CN2CCC(F)(F)CC2)n1-c1cccnc1)N1CCC[C@@H]1C(c1ccccc1)c1ccccc1,-6%
CC(=O)c1cccc(NC(=O)Cn2c(-c3ccc(Cl)cc3)nc(C)cc2=O)c1,-13%
NC(=O)C1(C(=O)N2CCc3ncnc(N4CC=CC4)c3CC2)CC1,6%
CCOc1ccc(CC(=O)N2CCC3(CC2)CC(O)CCO3)cc1 (stereo unspecified),2%
OC[C@@H]1O[C@H](CNC2CCOCC2)[C@H](N2CCN(c3ccc(F)cc3)CC2)[C@@H]1O,1%
Cn1ccnc1CN1CCCC(c2ccc(C(=O)O)cc2)C1 (stereo unspecified),-1%
CN1CCN(C(=O)N2CCCC(CNS(=O)(=O)c3cccs3)C2)CC1 (stereo unspecified),4%
CC(C)COc1cc(=O)n2c(c1C(=O)NC1CCCCC1)CCCCC2,3%
COCCNC(=O)c1cn2ccnc(-c3ccc(OC)cc3)c2n1,-1%
CCn1ncc(NC(=O)Cn2ncc3cc(-c4cccc(F)c4F)ccc32)n1,?
CS(=O)(=O)N1CCC(Cc2ccc(C(N)=O)cc2)CC1,-1%
CCOC(=O)C1(Cc2ccccc2F)CCCN(C(=O)C2=C(C)OCCO2)C1 (stereo unspecified),0%
Cn1ccnc1C(=O)N1CCCC(c2nc(-c3cccnc3)no2)CCNC(=O)CC1 (stereo unspecified),-3%
O=C(Cn1ccn2nc(-c3ccccc3)c(CO)c2c1=O)Nc1ccc(F)c(F)c1,-2%
COC1CCOC2(CCN(C(=O)COc3ccc(F)cc3)CC2)C1 (stereo unspecified),1%
O=C(CN1C(=O)NC(c2ccccc2Cl)C2=C1COC2=O)NCc1ccc2c(c1)OCO2 (stereo unspecified),-13%
O=C(CCCn1cncn1)N1CCCC(CCc2ccccc2C(F)(F)F)C1 (stereo unspecified),10%
CCN1CCN(C(=O)C2CCc3ncc(-c4ccc(F)cc4)n3C2)CC1 (stereo unspecified),-1%
COc1cccc(-c2cc(C3CCN(C(=O)Nc4ccccc4Cl)CC3)[nH]n2)c1,-16%
CCNC(=O)N1CCCC1c1noc(CCC(=O)N2CCN(c3ccccc3)CC2)n1 (stereo unspecified),-1%
O=C(CN1CC2CC(C1)[C@H]1CCCC(=O)N1C2)NC1CCCCC1 (stereo partly specified),4%
COCCn1c(C)cnc1CCNC(=O)Cc1cccc(F)c1,1%
COCC1CN(C(C)=O)CC12CCN(Cc1ccc3c(c1)CCO3)CC2 (stereo unspecified),-2%
CN1C(=O)[C@@H]2C[C@@H](CN2Cc2ccc3ccccc3n2)Oc2ccccc21,-13%[70.6 µM]
O=C(C[C@@H]1C[C@H]2O[C@H](CNCc3ccccc3OC(F)(F)F)[C@@H](O)[C@H]2O1)N1CCC(F)(F)C1,-4%
O=C([C@H]1C[C@H](Oc2cccnc2)CN1C(=O)CCc1c[nH]c2ccccc12)N1CCOCC1,-8%
CN1c2cc(C(=O)NCc3ccncc3)ccc2C(=O)N2CCCCC21 (stereo unspecified),-13%
Cn1c(CCNC(=O)Cn2nc3c(cc2=O)CCCC3)nc2ccccc21,-1%
COCCNC(=O)C1CN(c2ccc(OC)cc2)C(=O)N1 (stereo unspecified),0%[70.6 µM]
Fc1ccc(CN2CCC(Cc3nc(-c4cccnc4)n[nH]3)C2)c(F)c1 (stereo unspecified),-3%
O=C(c1ccc(Cn2ccnc2)o1)N1CCCCCC1c1nnc(-c2ccccc2)o1 (stereo unspecified),1%
Cc1ccc(-c2nnc([C@H]3CCN(C(=O)COCC(=O)O)C3)o2)cc1,3%[70.6 µM]
COc1ccccc1-c1nc(C2CC(=O)N(c3ccc(F)c(Cl)c3)C2)no1 (stereo unspecified),-24%
COc1ccc(-c2cc(-c3cccc(NC(C)=O)c3)cn3cncc23)cn1,-16%[70.6 µM]
O=C(NC1CCCCC1)C1CN(C(=O)c2cccc(Br)c2)CC12CCOCC2 (stereo unspecified),-1%
CCC(=O)N1CCc2c(sc3ncnc(NCCc4ccccc4)c23)C1,2%
O=C(c1ccccc1)N1CCCCC1c1nc(C2CC2)n[nH]1 (stereo unspecified),2%
CCn1nccc1C(=O)N1CCc2ncnc(N3CCOCC3)c2CC1,15%
COC(=O)C1=CN(CC(=O)Nc2ccccc2Cl)S(=O)(=O)N=C1C,6%
O=C1NC2(CCN([S+](=O)([O-])c3cccc(C(F)(F)F)c3)C2)N=C1c1cccnc1 (stereo unspecified),14%
COCCN1Cc2ccc(NCC(C)C)nc2C(C)(C(=O)Nc2cccc(F)c2)C1 (stereo unspecified),-12%[70.6 µM]
COc1cccc(NC(=O)C2CCCN(Cc3cccnc3)CCC(=O)NCC2)c1 (stereo unspecified),2%
CCC1(O)CCC12CCN(C(=O)c1ccoc1)CC2 (stereo unspecified),-6%
CN1c2cc(C(N)=O)ccc2C(=O)N2CCCCC21 (stereo unspecified),0%
Cc1cccnc1NC(=O)C1c2ccccc2C(=O)N(Cc2ccccc2)C12CCCC2 (stereo unspecified),-5%
CCNc1ncnc2sc3c(c12)CCN(C(=O)CCOC)C3,4%
O=C1Cc2c(-c3ccccc3Oc3ccccc3)n[nH]c2CN1CC1CCOCC1,-24%[70.6 µM]
Cc1nc2n(c1C(=O)Nc1cccc(Cl)c1C)CCC(Nc1ccc(F)cc1)C2 (stereo unspecified),-1%[70.6 µM]
O=C1CC(c2ccccc2)N(Cc2ccc(F)cc2F)CCCCCCN1 (stereo unspecified),-7%
COC(=O)CNC(=O)N1CCCCCCN(C)C(=O)[C@@H]2CCC[C@@H]21,-1%
O=C(CCCn1cncn1)N1C[C@H](CO)C[C@H](CN2CCOCC2)C1,-3%
O=C(Nc1ccccc1)c1cnc2c(c1)N([S+](=O)([O-])c1cccnc1)CCC2,5%[70.6 µM]
COc1ccc(CC(=O)NC2CCN(c3cn[nH]c(=O)c3)CC2)cc1,0%
C=CCn1cc2c3c(cccc31)[C@H](CC(C)C)N[C@H](C(=O)NCc1ccc(F)cc1)C2,-19%[70.6 µM]
COc1ccc(NC(=O)N2CCc3nc4cc(-c5ccccc5)[nH]n4c(=O)c3C2)c(C)c1,2%
O=C1CCN(S(=O)(=O)c2cccs2)CCCC(c2nc(-c3ccccc3)no2)CCN1 (stereo unspecified),-3%
Cc1nnc(-c2cc(C(=O)NCCN(C)C)ccn2)n1CCc1ccccc1,0%[70.6 µM]
Cc1ncccc1OC1(C(=O)NCc2cn3c(n2)SCC3)CCNCC1,1%
COc1ccccc1C(=O)N1CCC(O)(c2ccccc2)[C@H](N(C)C)C1 (stereo partly specified),0%

# The listing continues.
SMILES,hNpr1 antagonist
COc1ccc(C2Cn3nnc(C(=O)N4CCN(C(=O)c5cc(F)ccc5F)CC4)c3CO2)cc1 (stereo unspecified),?
COc1ccc(OC)c(CN2CC(Oc3ccccc3C(=O)NCc3ccccc3)C2)c1,-25%
O=C(NCCc1ccncc1)c1ccc(-c2nnc3ccc(NC(=O)C4CCC4)cn23)cc1,4%
CCn1cnnc1CC1CCN(C(=O)c2ccc(OC)cc2)C1 (stereo unspecified),1%
O=C(NCc1nnc2c(-c3nc(C4CC4)no3)cccn12)c1ccc(F)c(Cl)c1,-14%
Cc1ccc(OCC(=O)NCCC2CCN(C(=O)Nc3ccccc3C)CC2)cc1,0%
O=C(c1cccc(F)c1)N1CCC(N2C(=O)C(O)C23CCCCC3)CC1 (stereo unspecified),4%
Cn1ccc(Nc2cc3c(cn2)CN(CCc2ccccc2)CCN3)n1,-1%[70.6 µM]
COc1ccc(-c2nccn2C2CCC(N)CC2)c(Cl)c1OC (stereo unspecified),-2%
Cc1nn(C)c(C)c1S(=O)(=O)N1CCC(c2noc(C3CC3)n2)C1 (stereo unspecified),-2%
COC(=O)C1=C(C)N=C2SC=C(CC(=O)NCCC(C)C)N2C1c1ccsc1 (stereo unspecified),-5%
CCOC(=O)C1(Cc2ccc(F)cc2)CCCN(C(=O)c2cc3nc(C)cc(C)n3n2)C1 (stereo unspecified),5%

# A different layout for some results above.
SMILES | hNpr1 antagonist
COc1ccc(NC(=O)N2CCc3nc4cc(-c5ccccc5)[nH]n4c(=O)c3C2)c(C)c1 | 2%
O=C1CCN(S(=O)(=O)c2cccs2)CCCC(c2nc(-c3ccccc3)no2)CCN1 (stereo unspecified) | -3%
Cc1nnc(-c2cc(C(=O)NCCN(C)C)ccn2)n1CCc1ccccc1 | 0%[70.6 µM]
Cc1ncccc1OC1(C(=O)NCc2cn3c(n2)SCC3)CCNCC1 | 1%
COc1ccccc1C(=O)N1CCC(O)(c2ccccc2)[C@H](N(C)C)C1 (stereo partly specified) | 0%
COc1ccc(C2Cn3nnc(C(=O)N4CCN(C(=O)c5cc(F)ccc5F)CC4)c3CO2)cc1 (stereo unspecified) | ?
COc1ccc(OC)c(CN2CC(Oc3ccccc3C(=O)NCc3ccccc3)C2)c1 | -25%
O=C(NCCc1ccncc1)c1ccc(-c2nnc3ccc(NC(=O)C4CCC4)cn23)cc1 | 4%
CCn1cnnc1CC1CCN(C(=O)c2ccc(OC)cc2)C1 (stereo unspecified) | 1%
O=C(NCc1nnc2c(-c3nc(C4CC4)no3)cccn12)c1ccc(F)c(Cl)c1 | -14%
Cc1ccc(OCC(=O)NCCC2CCN(C(=O)Nc3ccccc3C)CC2)cc1 | 0%
O=C(c1cccc(F)c1)N1CCC(N2C(=O)C(O)C23CCCCC3)CC1 (stereo unspecified) | 4%
Cn1ccc(Nc2cc3c(cn2)CN(CCc2ccccc2)CCN3)n1 | -1%[70.6 µM]
COc1ccc(-c2nccn2C2CCC(N)CC2)c(Cl)c1OC (stereo unspecified) | -2%
Cc1nn(C)c(C)c1S(=O)(=O)N1CCC(c2noc(C3CC3)n2)C1 (stereo unspecified) | -2%
COC(=O)C1=C(C)N=C2SC=C(CC(=O)NCCC(C)C)N2C1c1ccsc1 (stereo unspecified) | -5%
CCOC(=O)C1(Cc2ccc(F)cc2)CCCN(C(=O)c2cc3nc(C)cc(C)n3n2)C1 (stereo unspecified) | 5%

# Next structures follow.
SMILES,hNpr1 antagonist
Cc1ccc(C(=O)NCC2Cn3cccc3C(=O)N2CC(C)C)cn1 (stereo unspecified),4%
COc1ccc(CC(=O)N2CCC3(CC2)CC(=O)N(c2ccccc2)c2ccccc2O3)cc1,31%[activator]
COc1ccc(F)cc1-c1ncc2c(n1)OCCN(c1cccc(C(F)(F)F)c1)C2=O,-11%[70.6 µM]
O=C(NCc1ccc(-c2ccccc2)cc1)[C@H]1CCC[C@H](O)C1,-2%
Cc1ccc2c(C(=O)N3CCN(C4CCCCC4)CC3)cc(NC(=O)C3CCC3)cc2n1,-7%
COc1ccc(-c2cc(N3CCC(NC(=O)COc4cccc(C)c4)CC3)n[nH]2)cc1,?
COc1ccc(-c2cc3nc4c(c(=O)n3[nH]2)CN(C(=O)CCc2ccccc2)CC4)cc1,3%
O=C(c1ccc(C(F)(F)F)cc1)N1CCC2(CNc3ccccc3[S+](=O)([O-])N2)C1 (stereo unspecified),?
O=C(c1n[nH]c(=O)c2ccccc12)N1CCCC1c1nc(CCOc2ccc(F)cc2)no1 (stereo unspecified),-28%
CNC(=O)c1ccn2cncc2c1,11%[70.6 µM]
Cc1ccc(S(=O)(=O)N2CCCC(Cn3c(C)nc4cccnc43)C2)cc1Cl (stereo unspecified),?
O=C(Cn1nc(-c2cccs2)ccc1=O)NC1CCCc2c1[nH]c1ccccc21 (stereo unspecified),3%
CN(Cc1nc(-c2ccccc2)cs1)C(=O)c1cccc(-n2cnnc2)c1,4%
CC1=C[C@@H](CNC(=O)c2cncnc2)[C@H](C(C)C)C[C@H]1Cc1nnc(-c2ccccc2F)o1,-8%
CCc1cccc(NC(=O)N2CC(C(=O)N(C)C)C3(CCOCC3)C2)c1 (stereo unspecified),-1%
CCCn1ncnc1C(C)Nc1cc(C(C)C)nc2cc(C)nn12 (stereo unspecified),4%
COc1ccc(NC(=O)C2CCN(c3cc(C(F)(F)F)ncn3)CC2)cc1,?
COCCN1C(=O)CCc2cc(NC(=O)COC)ccc21,1%
COc1ccc(CN2CC[C@@H]3CN(S(C)(=O)=O)[C@@H]3C2)c(OC)c1,5%
Cn1cc(C(=O)N2CCC(N(Cc3ccccc3)C3CCOCC3)CC2)cn1,-1%
COc1ccc(S(=O)(=O)N2[C@@H]3CC[C@H]2CC(NC(=O)c2ccc(F)cc2)C3)cc1 (stereo partly specified),-2%
COCCN1CCNc2nc(COc3ccc(C(C)C)cc3)n(Cc3ccccc3)c2C1=O,0%
CN1C(=O)CS(=O)(=O)C12CCN(C(=O)COc1ccc(Cl)cc1)CC2,-1%
Cn1cc(CNC(=O)C[C@@H]2C[C@H]3O[C@H](CNC4CCCCC4)[C@@H](O)[C@H]3O2)cn1,10%[70.6 µM]
O=C1CC(c2noc(-c3ccc4c(c3)OCO4)n2)CN1c1ccc(F)c(Cl)c1 (stereo unspecified),-2%
c1coc(-c2nc3nccc(-c4cc5ccccc5o4)n3n2)c1,-9%
Cc1nn(-c2ccc(F)cc2)c(Oc2ccccc2F)c1CCC(=O)N(C)C(C)C,-16%
O=C(c1ccccc1F)N1CCC(O)(c2csc(CN3CCc4ccccc4C3)n2)CC1,-27%
CC(=O)N1CCC([C@@H]2CN(Cc3cccc(C#N)c3)C[C@H]2CO)CC1,7%
O=C(c1ccc(F)cc1)N1CCC2(CC1)CN[S+](=O)([O-])c1ccccc1N2,2%
CC(C)(C)NC(=O)N1CCCC(c2nc(CCOCC3CCOCC3)no2)C1 (stereo unspecified),-3%
O=C(NC1CCN(c2nc3ncccc3o2)CC1)C1CCCC1,4%[70.6 µM]
Cc1cc(C(=O)NCC2(COc3ccccc3)C[C@@H](O)[C@@H](O)C2)n(C)n1 (stereo partly specified),3%[70.6 µM]
Cn1ncc(N2CCC(C(=O)NCC3CCN(Cc4ccc(F)cc4)CC3)C2)cc1=O (stereo unspecified),-3%

# These rows are one share of the data; the hit share may differ from the screen's.
